Compound activity deposited in PubChem by ICCB-Longwood Screening Facility, Harvard Medical School.
AID504770: E. coli YBA685 growth inhibition, screen for V. cholerae RctB inhibitors | z-score (no concentration beside the values) | E. coli YBA685 rctB-dependent plasmid, OD600 growth, 3 h; active compounds read low | 0.27% of 130,000 active;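 active = z-score under -2 on both plates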;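 also: wells of about 30 µL received 100 nL stock; score is relative to mean and SD of the test wells; the first replicate is given; strong numbers were not always called active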
CapD inh: CapD enzyme inhibition; 0.23% of 140,000 active; z-score (concentration not given with the values); AID 492967; purified CapD enzyme, fluorescence intensity read-out; active compounds read low; some hits fall short of the stated cut;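 active = z-score under -4 in either of two replicates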;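 also: stock transfer was 100 nL into about 40 µL; score is relative to mean and spread of the plate; one replicate is shown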
The depositor's hits bear a star.

Sample of the layout:
Cc1ccc(C(=O)N(C)c2ccc(OCC(=O)N(C)C3CCN(C)CC3)cc2)cc1 was read as AID504770 -0.8 and CapD inh 0.32.
For CCOC(=O)CN1C(=O)C(=O)N(Cc2ccc(Cl)c(Cl)c2)C1=O the results were CapD inh 0.135.

This part in full, repeating the preview:
Cc1ccc(C(=O)N(C)c2ccc(OCC(=O)N(C)C3CCN(C)CC3)cc2)cc1 was read as AID504770 -0.8 and CapD inh 0.32.
For CCOC(=O)CN1C(=O)C(=O)N(Cc2ccc(Cl)c(Cl)c2)C1=O the results were CapD inh 0.135.
`CN(c1nc2ccccc2[nH]c1=O)C1CCCCC1` gave AID504770 0.35.
Screening O=C(CS(=O)(=O)Cc1ccccc1Cl)Nc1ccccc1Cl returned CapD inh -0.025.
Screening O=C(O)CCCC(=O)Nc1cccc(F)c1C(=O)O returned AID504770 -0.75 and CapD inh 0.33.
CCNC(=S)N/N=C/c1ccc(OCC(=O)N2CC(C)OC(C)C2)c(OC)c1 (centres undefined) was read as AID504770 2.35.
Screening CC(C)CN(Cc1c(O)ccc2c(=O)c(-c3ccccc3)coc12)CC(C)C returned AID504770 -0.05 and CapD inh 13.3.
OC(CCN1CCOCC1)c1ccccc1 (centres undefined) was read as AID504770 -0.45 and CapD inh -0.865.
For CCCNC(=O)Cn1cc2c(n1)CCCCC2 the results were AID504770 0.2 and CapD inh 0.83.
For O=C(c1ccc(F)cc1)c1cc2cc(Br)cc(Br)c2o1 the results were CapD inh 0.215.
`CCN1C(=O)/C(=C/c2ccccc2NC(C)=O)OC1=S` gave AID504770 1.65 and CapD inh -0.91.
For CC(NC(=O)COc1ccc(C#N)cc1)C12CC3CC(CC(C3)C1)C2 (centres undefined) the results were AID504770 -0.7 and CapD inh -0.405.
For CC1(C)CC(NC(=O)CCC(=O)NC2CC(C)(C)NC(C)(C)C2)CC(C)(C)N1 the results were CapD inh 0.17.
For CCOC(=O)c1[nH]c2ccccc2c1NC(=S)Nc1cccc(C)c1C the results were AID504770 -0.6 and CapD inh 0.765.
For CCc1ccc(NS(=O)(=O)c2ccc3[nH]cc(C(=O)NC)c(=O)c3c2)cc1 the results were AID504770 1.3 and CapD inh -0.43.
For CCOC(=O)c1cnc2sc3ccccc3n2c1=O the results were CapD inh 0.39.
Screening CCc1onc(-c2c(Cl)cccc2Cl)c1C(=O)O returned CapD inh 0.535.
For CC(NC(N)=S)c1ccccc1 (centres undefined) the results were AID504770 -0.4.
For O=C(COc1ccccc1)NC1CCS(=O)(=O)C1 (centres undefined) the results were AID504770 0.6 and CapD inh 1.17.
O/C(=C\SC1=NCCN1)C12CC3CC(CC(C3)C1)C2 was read as AID504770 0.2 and CapD inh 0.71.
For COCCN(CCOc1ccc(S(C)(=O)=O)cc1)C(=O)c1ccc(C(F)(F)F)cc1 the results were CapD inh -0.135.
Screening CCOC(=O)c1cncc(Br)c1 returned CapD inh 0.7.
Screening CC(=O)NC(Cc1cnc[nH]1)C(=O)O (centres undefined) returned AID504770 -0.7 and CapD inh 0.115.
COc1ccc(N=C2SCCCN2C(=O)C2CCCC2)cc1OC was read as AID504770 0.05.

Looked up one by one from above (7):
Screening CCc1onc(-c2c(Cl)cccc2Cl)c1C(=O)O returned CapD inh 0.535.
For O=C(COc1ccccc1)NC1CCS(=O)(=O)C1 (centres undefined) the results were AID504770 0.6 and CapD inh 1.17.
For CCOC(=O)c1[nH]c2ccccc2c1NC(=S)Nc1cccc(C)c1C the results were AID504770 -0.6 and CapD inh 0.765.
For CC(NC(N)=S)c1ccccc1 (centres undefined) the results were AID504770 -0.4.
O/C(=C\SC1=NCCN1)C12CC3CC(CC(C3)C1)C2 was read as AID504770 0.2 and CapD inh 0.71.
For CCOC(=O)c1cnc2sc3ccccc3n2c1=O the results were CapD inh 0.39.
Screening CC(=O)NC(Cc1cnc[nH]1)C(=O)O (centres undefined) returned AID504770 -0.7 and CapD inh 0.115.

(more compounds)
COc1ccc(NC(=O)CSc2nncn3c2cc2occc23)cc1 was read as AID504770 -0.85 and CapD inh -0.55.
Screening Cc1ccc(NCn2nnc3ccccc32)cc1 returned AID504770 0.4 and CapD inh -0.18.
For COC(=O)c1c(-c2c(Cl)cccc2Cl)noc1NC(=O)NCc1ccccc1 the results were AID504770 2.6 and CapD inh -0.31.
Screening Cc1cccc(OCC(=O)O)c1C returned AID504770 -0.9 and CapD inh -0.24.
For Cn1nc(OC(C)(C)C(=O)O)cc1C(F)(F)F the results were AID504770 1.15 and CapD inh -0.205.
Screening CCN(C(=O)Cc1noc2ccccc12)c1cc(OC)ccc1OC returned AID504770 -0.8 and CapD inh -0.905.
For CC(=O)N1CCc2cc(C(O)CN3CCN(c4ccccn4)CC3)ccc21 (centres undefined) the results were AID504770 -0.65 and CapD inh 0.21.
`O=C(Nc1ccc(F)cc1)C1CC(=O)N(Cc2ccc3c(c2)OCO3)C(=Nc2ccc(F)cc2)S1` (centres undefined) gave CapD inh -0.19.
Screening Fc1ccc(NCc2cn(-c3ccccc3)nc2-c2cccs2)c(F)c1 returned AID504770 0.25 and CapD inh 20.2.
Screening Nc1nc2nc3ccccc3n2c(=O)[nH]1 returned AID504770 -0.3.
For CCCOc1ccc(C2(C(=O)O)CCCC2)cc1 the results were AID504770 -0.3 and CapD inh 1.73.
Screening CCOC(=O)C1=C(C)N=c2s/c(=C/c3cc(Br)c(O)c(OC)c3)c(=O)n2C1c1cc(OC)ccc1OC (centres undefined) returned CapD inh -1.12.
Screening O=C(CN1C(=O)c2ccccc2C1=O)N1CCN=C1c1ccccc1 returned AID504770 0 and CapD inh 0.265.
Screening O=[N+]([O-])c1ccc(/C=C/c2ccc([N+](=O)[O-])cc2)cc1 returned CapD inh 0.66.
For N#CCCn1c(=O)n(CCC#N)c(=O)n(CCC#N)c1=O the results were AID504770 -0.7.
`C=CCn1c(SCC(=O)OCC)nc2sc3c(c2c1=O)CC(C)(C)SC3` gave AID504770 -0.35 and CapD inh 4.83.
Screening C=CCN1C(=O)C2(Nc3ccccc3C(=O)N2c2ccccc2)c2ccccc21 (centres undefined) returned CapD inh 1.52.
For O=C(/C=C/c1ccc(Br)cc1)C12CC3CC(CC(C3)C1)C2 the results were CapD inh 0.025.
N#Cc1c(N)nc2c(c1C(=O)OCCO)CCC2 was read as AID504770 -0.25 and CapD inh 26.6.
`CC1(C)C=Cc2c(c3occc3c3oc(-c4ccccc4)cc(=O)c23)O1` gave AID504770 1.15 and CapD inh 1.88.
`O=C1Nc2ccccc2N(O)N1c1ccc(S(=O)(=O)N2CCOCC2)cc1` gave AID504770 -0.05 and CapD inh -0.66.
For COc1cc(OC)nc(COc2ccc(C(=O)N3CC(C)OC(C)C3)cc2)n1 (centres undefined) the results were CapD inh -0.73.
COc1cc(C2CC(=O)Nc3c2ccc2ccccc32)ccc1OCc1ccccc1 (centres undefined) was read as CapD inh -0.485.
Screening Cc1cc(C(F)(F)F)nc(NC(C)c2ccccc2)n1 (centres undefined) returned AID504770 0.4 and CapD inh 7.94.
Screening CC(Oc1ccc(Cl)cc1)c1ccnn1S(=O)(=O)c1ccccc1 (centres undefined) returned CapD inh -0.68.
CN(C(=O)CSc1ccc2c(c1)OCCO2)c1c(N)n(Cc2ccccc2)c(=O)[nH]c1=O was read as AID504770 -0.15.
Screening CCC(CC)NC(=O)c1cc(Cl)ccc1Cl returned AID504770 0.4 and CapD inh 0.1.
`CCOC(=O)N1CCN(C(=O)Cn2cnc3c(nnn3Cc3ccc(C)cc3)c2=O)CC1` gave AID504770 -0.25 and CapD inh 0.33.
Screening O=C(Nc1ccc(OC(F)(F)F)cc1Br)c1cnccn1 returned CapD inh -0.23.
CCN(CC)S(=O)(=O)c1ccc(F)cc1 was read as AID504770 -0.75 and CapD inh 0.125.
Screening Cc1occc1C(=O)Nc1ccc(S(=O)(=O)N(C)C)cc1 returned AID504770 -0.85 and CapD inh 0.555.
Screening CC1(C)CC(CCO)CC(C)(C)N1 returned AID504770 0.3 and CapD inh 0.885.
For Cc1cc(I)cnc1NC(=O)c1ccc(Cl)cc1 the results were CapD inh 0.015.
CC(CCc1ccco1)NC(=O)Nc1cn(C)c(=O)c2ccccc12 (centres undefined) was read as AID504770 -0.35 and CapD inh 12.1.
O=C(O)C1(NCc2ccc(F)cc2)CCCCC1 was read as AID504770 -1.3.
Cc1ccc(NC(=O)C(c2ccccc2)N2CCc3ccccc32)cc1 (centres undefined) was read as CapD inh 0.185.
Screening CC(=O)Nc1ccccc1NC(=O)c1cccs1 returned AID504770 2.15 and CapD inh -0.52.
Screening CCn1c(SCc2csc(CC(=O)Nc3ccc(C)cc3)n2)nnc1-c1ccco1 returned AID504770 -0.15.
c1ccc(-n2nnnc2NCC(c2ccco2)N2CCCCC2)cc1 (centres undefined) was read as AID504770 1.8.
`CNC(=O)c1sc(-c2ccccc2)nc1C` gave AID504770 0 and CapD inh 0.635.
O=C(NCc1cccnc1)OCc1ccc(/C=C/c2ccccc2)cc1 was read as CapD inh 6.62.
c1ccc(-c2csc(N3CCC(c4ccccc4)C3)n2)cc1 (centres undefined) was read as AID504770 0.25 and CapD inh 0.14.
`COc1cc(Cl)c(C)cc1NC(=O)c1sc2ncn(CC(=O)Nc3cccc(C(F)(F)F)c3)c(=O)c2c1C` gave CapD inh 0.455.
`CS(=O)(=O)c1cnc(N)nc1-c1cc(N2CCOCC2)nc(N2CCOCC2)n1` gave CapD inh -0.98.
Screening COC(CNC(=O)Cn1nc(Cc2cccnc2)c2ccccc2c1=O)OC returned AID504770 0.45 and CapD inh -0.035.
Screening CCOc1ccccc1N/C(SCc1c(F)cccc1Cl)=C(/C#N)C(=O)NCc1ccccc1 returned CapD inh -0.09.
CCOC(=O)c1sc2nc(CC(=O)OC)nc(NCc3ccc(Cl)cc3)c2c1C was read as CapD inh 9.59.
For CC(C)(C)n1nc2c(c1NC(=O)c1ccccc1)CSC2 the results were AID504770 -0.45 and CapD inh 0.055.
`C=C1c2ccccc2NC(=O)N1c1ccc(C)cc1` gave AID504770 0.35 and CapD inh 0.425.
For CC1CCCN(C(=O)Cn2cc(S(=O)(=O)N3CCN(c4ccccc4F)CC3)c3ccccc3c2=O)C1 (centres undefined) the results were AID504770 0.9 and CapD inh 0.23.
Cc1onc(-c2c(Cl)cccc2Cl)c1C(=O)O/N=C(\N)CN1CCSCC1 was read as AID504770 0.15 and CapD inh 0.285.
Screening CC(CN1CCOCC1)OC(=O)Cc1ccc(Cl)cc1 (centres undefined) returned AID504770 -0.25.
Screening CN(C)C(=O)c1coc2nc3ccccc3nc12 returned AID504770 0.75 and CapD inh 55.
Screening CN(C)C(=O)CSc1nc2cc(Cl)ccc2o1 returned AID504770 -1.2.
`CC(C)(O)C12CC3CC(C1)CC(C(C)(C)O)(C3)C2` gave AID504770 0.1 and CapD inh -0.44.
Screening C/C=C(\C)C(=O)Nc1ccccc1CC1c2ccccc2CCN1C (centres undefined) returned AID504770 1.7 and CapD inh -1.08.
`CCOC(=O)C1=C(N)Oc2ccc(Br)cc2C1C(C#N)C(=O)OCC` (centres undefined) gave CapD inh -0.1.
Screening COc1cccc(/C=N/n2c(N3CCOCC3)nc3ccccc32)c1OC returned AID504770 0.2.
`O=C1C(=O)N(c2cccc(C(F)(F)F)c2)C(c2ccccc2F)/C1=C(\O)c1ccccc1` (centres undefined) gave CapD inh -0.91.
For CC(C)CNC(=O)c1ccc2c(=O)n(CC(C)C)c(=S)[nH]c2c1 the results were AID504770 0.1.
For Cc1ccc(CCOC(=O)NCCCN2CCN(C)CC2)cc1 the results were CapD inh -0.345.
For N#CCCN(CCN1CCOCC1)C(=S)Nc1ccc(Cl)c(Cl)c1 the results were AID504770 -0.25.
For O=C(/C(=C/c1cccs1)c1cccs1)N1CCCCCC1 the results were AID504770 1.1 and CapD inh 0.615.
`O=c1[nH]c2c(F)cccc2c(O)c1-c1ccccc1` gave AID504770 0.3 and CapD inh 0.65.
O=C(OCCS(=O)(=O)c1ccc(C(F)(F)F)cn1)c1cccc(Cl)c1 was read as AID504770 2.05 and CapD inh -0.07.
For Cc1ccc2c(c1)c(N=NC(N)=S)c(O)n2CO the results were AID504770 0.05 and CapD inh -1.82.
`O=C(CN1C(=O)CCC1=O)Nc1ccc(Cl)cc1C(=O)c1ccccc1` gave AID504770 -0.95 and CapD inh -0.585.
O=C(COC(=O)c1ccc(Br)o1)c1ccccc1 was read as AID504770 -0.3 and CapD inh 0.275.
Screening c1ccc(-c2nc(CSc3nnc(-c4c[nH]c5ccccc45)o3)cs2)cc1 returned AID504770 -0.35.
`O=S1(=O)CC/C(=N\Nc2ccc(Cl)c(Cl)c2)c2ccsc21` gave CapD inh -0.14.
For O=[N+]([O-])c1ccc(Oc2ccc(-c3ccc(Oc4ccc([N+](=O)[O-])cn4)cc3)cc2)nc1 the results were CapD inh 0.345.
CCOC(=O)/C=C1\SCC(=O)N1CCN1CCCc2cc(C)ccc21 was read as AID504770 0.05.
Screening CCCc1nc2ccccc2n1CC(=O)N(COCC)c1c(C)cccc1CC returned AID504770 1 and CapD inh -0.74.
CC(C)=Cc1ccc(C#N)c(SCC(=O)c2cc3ccccc3oc2=O)n1 was read as CapD inh 0.185.
`O=C(Nc1ccc2c(c1)OCCO2)c1ccoc1` gave AID504770 -0.85 and CapD inh -0.79.
`O=C1N/C(=C/c2ccc(-c3ccc([N+](=O)[O-])cc3Br)o2)C(=O)N1Cc1ccc(Cl)cc1` gave CapD inh -0.43.
For COc1ccc(-c2cn(S(=O)(=O)c3ccccc3)nc2C)cc1OC the results were CapD inh 0.74.
For O=C(c1ccco1)N1CCN(c2ncnc3sc4c(c23)CCC4)CC1 the results were AID504770 -0.25.
Screening C=CCn1c(=O)c2ccccc2n2c(SCC(=O)N(C)C)nnc12 returned AID504770 0.9.

A draw from above in order of molar mass, ascending:
`CNC(=O)c1sc(-c2ccccc2)nc1C` gave AID504770 0 and CapD inh 0.635.
Screening CCN(C(=O)Cc1noc2ccccc12)c1cc(OC)ccc1OC returned AID504770 -0.8 and CapD inh -0.905.
For O=[N+]([O-])c1ccc(Oc2ccc(-c3ccc(Oc4ccc([N+](=O)[O-])cn4)cc3)cc2)nc1 the results were CapD inh 0.345.
